Screens deposited in PubChem BioAssay by National Center for Advancing Translational Sciences (NCATS).
RE007 growth inh = less growth of the S. pombe RE007 Vpr strain. actives 0.21% (n = 360,000). AID 651644. Potency, µM (highest dose often 92.2 µM), inactives show at the top dose activity change, negative = less growth. S. pombe RE007 Vpr strain, BacTiter-Glo ATP luminescence, 24 h; control for the full effect not named in the record; active = well fitted falling curve with a large enough effect; inconclusive = small, poorly fitted or top-dose-only effect; inactive = no such curve, though single readings can be large or run the other way;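 also: % is scaled to controls: 0 for no effect and ±100 for the full control effect; nearly all actives have a fitted effect of over 50% in size; the assay follows cell death caused by Vpr and the record does not say whether a fall means rescue or toxicity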
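Fission yeast strain RE007, carrying one chromosomally integrated HIV-1 vpr copy, was seeded at OD 0.01 in PMG+AL medium with 23 nL pinned compound. After 24 h at 30 °C and 99% humidity, viability was read by BacTiter-Glo luminescence.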
Lassa entry inh = inhibitors of Lassa virus binding or cell entry; Lassa virus pseudotype entry inhibition, cell reporter; control for the full effect not named in the record; Potency, µM (doses to about 37.9 µM), without a hit: at the highest dose activity change, negative = inhibition, hits mostly inhibitors; actives 1.2% (n = 300,000); AID 540256; active means well fitted inhibition curve with a large enough effect; inconclusive means small, poorly fitted or top-dose-only effect, or effect the other way; inactive means flat fitted curve, though single readings scatter; tested in HEK293 cells; also: % is scaled to controls: 0 for no effect and ±100 for the full control effect; nearly all actives have a fitted effect of over 50% in size; luciferase read-out
Cruzain inh Det = inhibitors of Trypanosoma cruzi cruzain with detergent; purified cruzain, Z-FR-AMC fluorescence, 0.01% Triton; Potency, µM, for inactives: max response, negative = inhibition, actives largely listed as inhibitors; actives 0.43% (n = 200,000); active = well fitted curve in the direction sought with a large enough effect; inconclusive = small, poorly fitted or top-dose-only effect, or another doubt; inactive = no such curve, though single readings can be large; an effect the other way counts as inactive or inconclusive;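 also: plate controls were neutral wells for no effect and buffer without enzyme for full effect; nearly all actives have a fitted effect of over 40% in size; top concentration of the series not given in the record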
Target sequence (P25779 123-467 limits assumed): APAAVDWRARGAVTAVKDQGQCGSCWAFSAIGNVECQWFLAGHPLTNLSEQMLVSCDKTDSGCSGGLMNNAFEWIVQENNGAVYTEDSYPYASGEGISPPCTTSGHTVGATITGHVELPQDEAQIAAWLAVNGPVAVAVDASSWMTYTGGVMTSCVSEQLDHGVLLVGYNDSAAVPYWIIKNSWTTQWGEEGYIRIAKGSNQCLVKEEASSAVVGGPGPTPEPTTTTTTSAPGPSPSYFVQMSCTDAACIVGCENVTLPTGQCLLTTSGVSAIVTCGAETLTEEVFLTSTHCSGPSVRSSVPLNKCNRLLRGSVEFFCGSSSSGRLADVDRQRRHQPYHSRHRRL
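15 min RT preincubation of 1.5 nM cruzain with compound, then 2 uM Z-FR-AMC added; kinetic AMC fluorescence, 60 s delta. Triton X-100 0.01%, pH 5.5.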
MARV entry inh = blocks Marburg virus binding to or entry into cells. Marburg virus pseudotyped entry inhibition, cell reporter; control for the full effect not named in the record; about a third of the inactives were read at about 46 µM. Potency, µM (doses to about 37.8 µM), for inactives: top-dose activity change, negative = inhibition, hits mostly inhibitors. actives 1.8% (n = 300,000). AID 540276; active = well fitted inhibition curve with a large enough effect; inconclusive = small, poorly fitted or top-dose-only effect, or effect the other way; inactive = flat fitted curve, though single readings scatter; tested in HEK293 cells; about a fifth of its hits are not listed in these tables; also: % is scaled to controls: 0 for no effect and ±100 for the full control effect; luciferase read-out
SARS PLP yeast = SARS-CoV PLP inhibition in yeast; S. cerevisiae expressing SARS-CoV PLpro, growth rescue; control for the full effect not named in the record; actives 0.19% (n = 330,000); Potency, µM (series often up to 32.9 µM), without a hit: at the highest dose activity, positive = growth rescue; AID 485353; also: 0% is about no effect; nearly all actives have a fitted effect of over 55% in size; growth read by luminescence after 48 h
StopGo reporter = FMDV 2A StopGo reporter, luciferase signal | Potency, µM (doses to about 57.9 µM), for the others: top-dose signal change, negative = less light | human cells with a luciferase reporter of 2A StopGo recoding; control for the full effect not named in the record | AID 1159524 | actives 1.2% (n = 410,000); active = well fitted falling curve with a large enough effect; inconclusive = small, poorly fitted or top-dose-only effect; inactive = no such curve, though single readings can be large or run the other way; tested in HEK293T cells; also: % is scaled to controls: 0 for no effect and ±100 for the full control effect; nearly all actives have a fitted effect of over 45% in size; luciferase light after 4 h
Cruzain inh noDet = inhibitors of Trypanosoma cruzi cruzain without detergent; AID 1476; actives 2.3% (n = 200,000); purified cruzain, Z-FR-AMC fluorescence, no detergent; Potency, µM, for inactives: max response, negative = inhibition, actives largely listed as inhibitors; active = well fitted curve in the direction sought with a large enough effect; inconclusive = small, poorly fitted or top-dose-only effect, or another doubt; inactive = no such curve, though single readings can be large; an effect the other way counts as inactive or inconclusive;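 also: plate controls were enzyme without inhibitor for no effect and buffer without enzyme for full effect; nearly all actives have a fitted effect of over 40% in size; top concentration of the series not given in the record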
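Detergent-free condition (0.00005% Triton X-100) in acetate buffer pH 5.5 with DTT. 1.5 nM enzyme and compound were pre-mixed 15 min, then 2 uM Z-FR-AMC substrate added; reaction progress from fluorescence change between first and third reads (60 s).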
NS1 function inh = blocks influenza NS1 protein function | actives 0.4% (n = 270,000) | S. cerevisiae slowed by influenza A NS1, growth recovery by OD600 | Potency, µM (top dose mostly 46.1 µM), inactives show at the top dose activity, positive = more growth; also: actives are rising curves; nearly all actives have a fitted effect of over 50% in size
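S. cerevisiae expressing influenza A NS1, grown in glucose, washed, then diluted 1:100 into pH 6.0 -URA galactose medium with 23 nl compound. Growth recovery read as OD600; NS1-free strain serves as control.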
Starred values were filed as active, the others as inactive; ? = inconclusive; . = not tested or not shown; & = joins results of further samples; [ ] = remark or other dose. Unless noted, calls follow the shape of the dose curve; as a rule, active means well fitted rising curve with a large enough effect; inconclusive means small, poorly fitted or top-dose-only effect; inactive means no such curve, though single readings can be large or run the other way. Potency is read from the fitted curve at half-maximal effect.

Compound	MARV entry inh	Cruzain inh Det	Lassa entry inh	SARS PLP yeast	Cruzain inh noDet	RE007 growth inh	NS1 function inh	StopGo reporter
CC(Sc1nc2ccccc2c(=O)n1CC1CCCO1)C(=O)NC(C)c1ccccc1 (stereo unspecified)	6.6%	.	12.9%[46.1 µM]	0.2%	.	2.1%	.	-14.5%
COc1ccccc1OCc1ccc(C(=O)NN)cc1	?	-2.6%	-4.9%	-11.1%	7.3%	17.1%	?	7.7%
Cc1ccccc1OCC(=O)NC(=S)Nc1ccc(N2CCOCC2)c(Cl)c1	-9.4%[46.1 µM]	-5.5%	13.2%	-1.5%	?	8.3%	-1.1%	-21.3%
Cc1cc(C)c(C)c(S(=O)(=O)N2CCN(CC(=O)c3c(N)n(Cc4ccccc4)c(=O)n(C)c3=O)CC2)c1C	?	-10.6%	?	2.8%	5.7%	-14.5%	-20.8%	-8.3%
O=C(COC(=O)CCSc1ccccc1Cl)Nc1ccc(F)cc1F	1.2%	14.1µM*	20.9%	-11.1%	12.6µM*	-3.1%	-24.5%	-14.3%
CCCCCCCNC(=O)C1(CC2CC(c3ccc(Cl)cc3)=NO2)CCN(C(=O)c2ccccc2)CC1 (stereo unspecified)	.	.	.	-1.4%	.	12.6%	22.0%	-18.8%
COc1ccc(CCNc2nc3c(c(=O)n(C)c(=O)n3C)n2Cc2ccccc2Cl)cc1OC	14.6%[46.1 µM]	0.2%	?	.	10.0%	.	.	?
CCC1CCCCN1C(=O)Cn1c(=O)n(CCC(=O)NCc2ccco2)c(=O)c2sccc21 (stereo unspecified)	-2.4%&12.3%	-3.6%	?	8.5%	4.0%	12.1%	6.9%	31.1%[activator]
CC(C)(C)n1ncc2c(=O)n(CC(=O)NCCc3ccccc3)cnc21	10.0%	0.4%	26.7%	-2.6%	0.7%	-6.9%	-0.8%	17.8%
CC(C)C[C@H](NC(=O)c1[nH]cnc1C(=O)N[C@H](C)c1ccccc1)C(=O)OCc1ccccc1	.	.	.	-0.4%	.	-10.1%	?	-21.3%
COCCNC(=O)c1ccc2c(=O)n(CCCN3CCCC3=O)c(=S)[nH]c2c1	19.1%[46.1 µM]	.	8.3%	3.0%	.	6.9%	.	-11.1%
CCN(CC)CCCNC(=O)c1nn(-c2ccc(OC)cc2OC)c(=O)c2ccccc12	3.8%&3.8%[46.1 µM]	-3.5%	-3.6%	0.2%	-7.2%	-4.3%	7.1%	-10.3%
CC(C)(C)OC(=O)NCCCCCc1nnc(SCc2c(F)cccc2Cl)o1	-6.5%[46.1 µM]	.	-22.8%[46.1 µM]	-1.9%	.	-20.1%	-4.1%	-22.2%
O=c1c2ccccc2nnn1CCN1CCOCC1	.	.	.	1.4%	.	0.1%	-1.4%	0.5%
COc1ccc(-n2nc(C(=O)NCC(=O)NCCc3ccc(OC)c(OC)c3)c3ccccc3c2=O)cc1Cl	?	.	-20.8%[46.1 µM]	0.7%	.	12.1%	-2.3%	-21.7%
Cc1cnc(C(=O)OCC(=O)Nc2cc(Cl)cc(Cl)c2)cn1	-19.3%	0.9%	2.5%	-11.9%	-0.3%	3.3%	-3.7%	.
Nc1[nH]ncc1-c1ccccc1	15.7%[46.1 µM]	.	?	-0.1%	.	20.6%	.	-5.7%
Cc1ccc2cc(C#N)c(SCC(=O)NCC3CCCO3)nc2c1 (stereo unspecified)	4.1%[46.1 µM]	1.6%	-2.5%	-5.0%	-3.2%	9.1%	-2.3%	4.7%
O=C1/C(=C/c2cccnc2)SC(=S)N1c1ccc(O)cc1	-27.5%[46.1 µM]	.	?	-0.3%	.	-3.1%	11.9%	-9.2%
O=C1CSC(c2ccccc2[N+](=O)[O-])N1CCc1ccccc1 (stereo unspecified)	6.0%	.	0.5%	-1.0%	.	-2.5%	.	-28.6%
Cc1ccc(NC(=O)CCC(=O)N/N=C/c2ccccc2O)cc1	.	.	.	0.2%	.	5.6%	0.0%	14.8%
Cc1csc(NC(=O)c2cc(=O)[nH]c3ccc(S(=O)(=O)N4CCOCC4)cc23)n1	-6.0%[46.1 µM]	.	15.5%[46.1 µM]	-1.7%	.	-15.0%	.	-12.6%
Cc1ccc(NC(=O)CN(Cc2ccco2)Cc2ccccc2O)cc1C	?	.	?	-10.6%	.	-20.5%	-18.7%	5.9%
COc1ccc(N2CCN(c3ncnc4sc(C(=O)NCC5CCCO5)c(C)c34)CC2)cc1 (stereo unspecified)	-17.9%[46.1 µM]	.	?	-1.2%	.	18.5%	?	?
Cc1ccc(C)c(NC(=S)N2CCCCCC2)c1	-9.0%[46.1 µM]	-2.4%	-10.4%	?	15.1%	-2.8%	-5.1%	-7.1%
C/C(=N/NC(=O)c1nnn(-c2nonc2N)c1COc1ccccc1)c1ccccc1	.	.	.	0.3%	.	-3.5%	20.3%	-18.6%
O=C(Oc1ccccc1Cl)c1ccccc1P(=O)(O)O	0.2%	2.9%	3.3%	-4.3%	3.7%	6.9%	8.0%	11.1%
COc1ccccc1CC(=O)NCCc1c[nH]c2ccccc12	-23.9%[46.1 µM]	.	-1.0%[46.1 µM]	1.2%	.	-4.8%	-2.8%	0.0%
C=CCNC(=O)c1onc(CSc2cccc(OC)c2)c1C(=O)NCC=C	.	.	.	0.9%	.	-10.6%	?	-25.6%
C=C(C)CNC(=S)NNC(=O)c1ccc(Br)cc1	19.7%	5.5%	?	15.8%	0.4%	0.6%	2.5%	25.7%
Cc1ccc(CNC(=O)Cn2cc3c(n2)-c2c(oc(C(=O)N4CCOCC4)c2C)CC3)cc1	.	-2.9%	-18.4%[46.1 µM]	.	6.4%	.	.	?
Cc1ccc(NC(=O)c2ccc(=O)n(CC(=O)Nc3cc(C)cc(C)c3)n2)cc1	.	2.3%	?	.	0.0%	.	.	-2.0%
COc1ccc(C2Nc3ccccc3NC3=C2C(=O)CC(C)(C)C3)cc1 (stereo unspecified)	.	.	.	-8.0%	.	-6.4%	-6.6%	18.7%
O=C(COc1ccc2c(c1)CCC2)N1CCN(c2cccc(C(F)(F)F)c2)CC1	1.3%	-5.4%	-1.3%	5.5%	5.5%	-8.2%	24.5%	-15.0%
O=C(Cc1c(Cl)cccc1Cl)OCC(=O)N1CCOCC1	3.1%	.	17.0%	-0.7%	.	13.5%	.	-10.8%
CCN1CCN(S(=O)(=O)c2ccc(Cl)c(C(=O)N(C)Cc3cccc(Cl)c3Cl)c2)CC1	?	.	?	-2.9%	.	-14.6%	.	-28.4%
CN=CC1=C(O)CC(C)(C)CC1=O	5.1%	2.1%	1.6%	1.8%	7.9%	5.3%	1.5%	-3.3%
CCCCN(C(=O)CSCc1c(C)noc1C)c1c(N)n(CCCC)c(=O)[nH]c1=O	?	.	-0.7%[46.1 µM]	1.6%	.	-0.2%	.	9.0%
CCc1ccc(NC(=O)C2CCN(C(=O)N3CCOc4ccccc43)CC2)cc1	.	.	.	-1.9%	.	13.4%	1.5%	-18.4%
COc1cc(NC(=O)c2c3c(nc4ccccc24)CCC3)cc(OC)c1	?	8.5%	-3.8%	2.0%	-15.2%	-0.4%	12.0%	-19.3%
COc1ccc(C)cc1NC(=O)Cn1c(=O)cc(C)c2c(C)nn(C)c21	.	-1.4%	?	.	-7.1%	.	.	?
O=C(N/N=C/c1c(O)n(CCC2=CCCCC2)c(=O)[nH]c1=O)c1ccccc1	-14.9%	3.5%	-13.0%	10µM*	25.1µM*	7.2%	5.4%	-24.7%
Cc1ccc(N2C(=O)[C@@H]3[C@H](C2=O)C2CCCN2[C@@H]3C(=O)c2ccccc2)cc1 (stereo partly specified)	-50.7%&8.9%	-3.6%	0.9%	-1.0%	?	-21.7%	5.3%	0.0%
CC(C)Oc1ccc(CCC(=O)N/N=C/c2ccc3c(c2)OCO3)cc1	-17.3%[46.1 µM]	.	.	-0.3%	.	-9.8%	-2.6%	5.7%
O=C(O)c1cc(S(=O)(=O)N(Cc2ccccc2)c2ccc(Cl)cc2)ccc1Cl	?	.	-14.8%	5.0%	.	-9.9%	-1.3%	-8.3%
O=S(=O)(c1ccc(F)cc1)N1CCC(Oc2ccc(-n3cnnn3)cc2)CC1	-1.1%[46.1 µM]	-1.8%	-10.1%[46.1 µM]	.	-12.2%	.	.	-24.5%
CC1(C)Cc2c(sc3nc4n(c(=O)c23)CCC4)CO1	13.6%	3.7%	1.6%	-2.0%	0.2%	-4.4%	8.9%	-16.1%
O=C(CSc1nc(-c2cccs2)nc2cc(=O)[nH]n12)Nc1ccccc1	.	1.1%	18.2%[46.1 µM]	.	?	.	.	-17.8%
C=CCOc1ccc(CNCCO)cc1OCC	0.7%	-3.2%	5.6%	?	4.6%	23.9%	14.3%	-22.2%
CCOC(=O)C1(C)/C(=N/Nc2ccc(S(N)(=O)=O)cc2)C(=O)C(=O)N1c1ccccc1 (stereo unspecified)	-13.2%[46.1 µM]	.	-9.0%	-0.2%	.	2.4%	.	-14.2%
COc1ccc(CCNC(=O)c2noc(C(C)C)c2[N+](=O)[O-])cc1OC	19.6%	.	9.7%	-3.7%	.	-5.8%	-5.0%	-3.5%
Cc1c(C(=O)NC2=NCCS2)cccc1[N+](=O)[O-]	-13.7%[46.1 µM]	.	?	-2.9%	.	-13.1%	1.3%	4.0%
CCc1cc2cc(C)ccc2nc1SCC(=O)N1CCN(C(=O)c2ccco2)CC1	-18.4%	-10.4%	-29.6%	2.7%	?	1.2%	-82.8%	-0.7%
COCCNc1ncnc2onc(-c3ccc(F)cc3)c12	.	1.0%	?	.	-8.9%	.	.	-20.5%
CCC(C)NC(=O)CSc1nnc(-c2cc(-c3ccc(C)cc3)nc3ccccc23)n1N (stereo unspecified)	0.0%[46.1 µM]	-5.6%	-0.2%	1.1%	?	7.1%	4.6%	-2.7%
COc1cccc(OCCOCCNCCO)c1	6.6%	2.6%	.	-2.4%	8.8%	.	4.0%	.
